Source: PubChem
H5N1 antiviral: MDCK cell protection from H5N1 avian flu. cytopathic effect, luminescence, 72 h; hits give high values; no value below 0 was filed and about half of the inactive calls have no number; reference of the scale not given here. inhibition, % at 50 µM. 0.07% of 96,000 active. AID 740; in the data active = inhibition above about 25%
The depositor's hits bear a star; i = inactive. A portion of the library, so the mix of outcomes need not match the whole.

Start of the data: the first 5 records, ahead of the listing:
SMILES | H5N1 antiviral
Cc1cc(NS(=O)(=O)c2ccc(NC(=O)CCN3C(=O)c4ccccc4C3=O)cc2)no1 | i
COc1cc2c(cc1OC)-c1cc(OCCN3CCOCC3)nc(=O)n1CC2 | 1.0
COc1ccc(N2C(N)=C(C#N)C(c3cccnc3)C3=C2CC(C)(C)CC3=O)cc1 (configuration not stated) | i
Nc1c(C(=O)NCc2ccccc2)sc2nc(N3CCOCC3)c3c(c12)CCCC3 | i
O=C(CSc1nnc(-c2ccco2)n1-c1ccccc1)NCCc1ccccc1 | i

This part in full, from the start:
SMILES | H5N1 antiviral
Cc1cc(NS(=O)(=O)c2ccc(NC(=O)CCN3C(=O)c4ccccc4C3=O)cc2)no1 | i
COc1cc2c(cc1OC)-c1cc(OCCN3CCOCC3)nc(=O)n1CC2 | 1.0
COc1ccc(N2C(N)=C(C#N)C(c3cccnc3)C3=C2CC(C)(C)CC3=O)cc1 (configuration not stated) | i
Nc1c(C(=O)NCc2ccccc2)sc2nc(N3CCOCC3)c3c(c12)CCCC3 | i
O=C(CSc1nnc(-c2ccco2)n1-c1ccccc1)NCCc1ccccc1 | i
CCN(CC)c1nc(N)c2c(N)nc3c(c2c1C#N)CC(c1ccccc1)O3 (configuration not stated) | 0.4
CCOC(=O)N1CCN(C(=O)c2ccc3c(c2)sc2nc(-c4ccc(OC)cc4)cn23)CC1 | 0.1
CCCn1c(=N)n(CCOc2ccc(OC)cc2)c2ccccc21 | i
O=S(=O)(O)c1nc2ccccc2n1CCOc1ccccc1 | i
Cc1cc(Cl)c(S(=O)(=O)N2CCN(c3cccc(C)c3C)CC2)cc1OCC(N)=O | i
COc1ccc(C(=O)/C=C/Nc2c(C)n(C)n(-c3ccccc3)c2=O)cc1OC | 0.5
CCOCC(O)CS(=O)(=O)c1ccccn1 (configuration not stated) | i
COc1cc(NS(=O)(=O)c2cccc3nsnc23)cc(OC)c1 | 2.3
O=C(Nc1ccc(Cl)cc1)Nc1ccccc1C(=O)NCc1ccco1 | i
CC(=O)Cc1nsc(NC(=O)c2csc3c2CCCC3)n1 | 1.4
CO/N=C/CC(=O)Nc1ccc(F)cc1F | 0.7
CCc1nnc(NC(=O)Cc2ccc(OC)cc2)s1 | 0.7
Cc1ccc(S(=O)(=O)c2nc(S(=O)(=O)c3ccc(C)cc3)c(NCc3ccco3)s2)cc1 | 0.5
Cc1cc(C)nc(NC(=O)NS(=O)(=O)N2CCCCCC2)n1 | i
CCn1c(SCC(=O)NCC2CCCO2)nnc1-c1c[nH]c2ccccc12 (configuration not stated) | i
C=CCn1c(O)c(C(CC)=NC(C)c2ccccc2)c(=O)[nH]c1=O (configuration not stated) | i
COc1ccccc1NC(=O)c1cnc2n(c1=O)CCS2 | 6.4
CC(C)CCOC(=O)C1[C@H]2C(=O)N(Cc3cccs3)C[C@]23C=C[C@H]1O3 (some centres not stated) | 0.1
CC(=O)NC1CC2CCCC(C1)N2S(=O)(=O)c1ccccc1 (configuration not stated) | 1.9
O=C(O)c1ccccc1C(=O)NCC(O)COCC1CC=CCC1 (configuration not stated) | i
Cc1nc2ccc(NS(=O)(=O)c3ccc(C)c(C)c3)cc2s1 | 0.4
O=C1CCCc2nc3nc4ccccc4n3cc21 | i
COc1ccc(CC(=O)OCN2C(=O)c3ccccc3C2=O)cc1 | i
CC(C)c1cc(C(=O)O)on1 | i
CCOc1ccc(NS(=O)(=O)c2ccc3c(c2)oc(=O)n3C)cc1 | i
CC1=C(C#N)CCC(=O)N1Cc1ccc(C)cc1 | 0.1
O=C(Cc1ccc(F)cc1)NCCc1ccc(F)cc1 | i
CN(C)c1ccc(/C=N/N2C(=S)SC(C)(C)C2N(O)C(=O)Nc2ccc([N+](=O)[O-])cc2)cc1 (configuration not stated) | 14
Nc1nnc(SCC(=O)Nc2cc(C(F)(F)F)ccc2N2CCOCC2)s1 | 2.5
Nc1nc(SCC(=O)OCc2ccccc2)[nH]c(=O)c1NC(=O)c1ccco1 | 0.3
N#Cc1nc(-c2ccco2)oc1N1CCc2ccccc2C1 | 0.8
CNS(=O)(=O)c1cccc(C(=O)OCC(=O)C23CC4CC(CC(C4)C2)C3)c1 | i
CCOc1cc(C2C(C(=O)c3ccccc3)=C(C(=O)OC)Nc3nnnn32)ccc1O (configuration not stated) | 2.3
COc1ccc(N/C(=N\c2nc(C)cc(C)n2)NC(C)=O)cc1OC | 3.3
Cc1ccc(-n2c(N)c(C(=O)N3CCOCC3)sc2=S)cc1 | i
COc1ccc(C)cc1S(=O)(=O)NC1CCCCC1 | 1.7
N#Cc1ccc(CSc2nnc(-c3cccs3)n2-c2ccccc2)cc1 | 5.0
CCOC(=O)CSc1nc2ccccc2c(=O)n1CC1CCC(C(=O)NCc2ccco2)CC1 (configuration not stated) | i
O=C(CCCN1C(=O)c2ccccc2C1=O)N1CCc2ccccc2C1 | i
COc1ccc(NC(=S)NCc2ccco2)c(OC)c1 | 0.5
CCCCN1C(=O)c2ccc(C(=O)Nc3c(N)n(CCCC)c(=O)n(C)c3=O)cc2C1=O | i
CCCn1c(SCc2cc(=O)oc3ccc4ccccc4c23)n[nH]c1=O | 0.5
O=C(NC1CCCc2ccccc21)c1cccc(S(=O)(=O)N2CCN(c3ccccc3)CC2)c1 (configuration not stated) | i
Cc1ccccc1Oc1ncccc1C(=O)/C(C#N)=C/N(C)C | i
Cc1csc2nc(CCNS(=O)(=O)c3ccc4c(c3)OCCO4)cn12 | 0.2

Brought forward from above: 3 compounds, followed by the next part.
SMILES | H5N1 antiviral
O=C(NC1CCCc2ccccc21)c1cccc(S(=O)(=O)N2CCN(c3ccccc3)CC2)c1 (configuration not stated) | i
Cc1ccccc1Oc1ncccc1C(=O)/C(C#N)=C/N(C)C | i
Cc1csc2nc(CCNS(=O)(=O)c3ccc4c(c3)OCCO4)cn12 | 0.2
O=C(NCCn1ccc2ccccc21)c1ccc2c(c1)OCO2 | 0.5
CCOC(=O)C1=C(C)NC(C)=C(C(=O)OCC)C1C(=O)OCC(=O)c1ccc2c(c1)OCCO2 | i
CC(=O)c1ccc(-n2nncc2C)cc1 | 0.3
Cc1ccc2cc(CCNC(=O)c3c(-c4ccccc4Cl)noc3C)c(=O)[nH]c2c1 | 1.0
Cc1nc(NC(=O)c2cccnc2)ccc1Br | i
O=C(CCCn1c(SCC(=O)c2ccc(O)c(O)c2)nc2ccccc2c1=O)NCC1CCCO1 (configuration not stated) | 2.0
CCS(=O)(=O)NCCc1cc2c(OC)ccc(OC)c2[nH]c1=O | i
Cc1ccc(C(=O)CN(C(=O)c2ccc(Cl)cc2)N2C(=O)c3ccccc3C2=O)cc1 | i
COc1cc(OC)cc(C(=O)OCn2nnc3ccccc3c2=O)c1 | 0.3
COc1ccc2c(c1)c1ncn(CCCN3CCOCC3)c(=O)c1n2C | 1.6

Random excerpt: four records from the list
SMILES | H5N1 antiviral
Cc1nc(NC(=O)c2cccnc2)ccc1Br | i
COc1cc(OC)cc(C(=O)OCn2nnc3ccccc3c2=O)c1 | 0.3
Cc1ccc(C(=O)CN(C(=O)c2ccc(Cl)cc2)N2C(=O)c3ccccc3C2=O)cc1 | i
COc1ccc2c(c1)c1ncn(CCCN3CCOCC3)c(=O)c1n2C | 1.6

Further records follow.
SMILES | H5N1 antiviral
CCOc1ccc(N2CC(C(=O)OCC(=O)NCc3ccccc3)CC2=O)cc1 (configuration not stated) | 0.1
Cc1cc(C(F)(F)F)nn1CC(=O)NNC(=S)Nc1ccc(F)cc1 | i
O=C(NC(Nc1nc2ccc([N+](=O)[O-])cc2s1)(C(F)(F)F)C(F)(F)F)c1ccccc1 | 6.2
Cc1ccc(-c2nn(C)c(=O)c3ccccc23)cc1CO | 0.6
Cn1c(=O)[nH]c(=O)c2c1nc(NCCCO)n2Cc1ccc(F)cc1 | i
COc1ccc(C(C(=O)NC(C)(C)C)N(C(=O)CNC(=O)c2cccs2)c2ccc(C)cc2)cc1OC (configuration not stated) | i
Cc1ccc2nnc(Cl)n2n1 | i
O=C(Nc1nc2ccccc2s1)c1cc2c(s1)-c1ccccc1OC2 | i
CCn1c(SCC(=O)Nc2nc3c(s2)CCCC3)nnc1-c1ccccc1 | 1.1
COc1ccc(COc2ccsc2C(=O)Nc2ccc(Cl)cc2)cc1 | 0.4

Taken from above (4 entries):
SMILES | H5N1 antiviral
Cc1ccc2nnc(Cl)n2n1 | i
O=C(Nc1nc2ccccc2s1)c1cc2c(s1)-c1ccccc1OC2 | i
CCn1c(SCC(=O)Nc2nc3c(s2)CCCC3)nnc1-c1ccccc1 | 1.1
COc1ccc(COc2ccsc2C(=O)Nc2ccc(Cl)cc2)cc1 | 0.4

(next part)
SMILES | H5N1 antiviral
O=C(COc1ccc(S(=O)(=O)N2CCCCC2)cc1)NCc1cccnc1 | i
O=C(Cn1cccc1C(=O)c1ccccc1)NCCN1CCOCC1 | i
COC(=O)C1=C(O)/C(=C\c2ccc(O)c(OC)c2)N=C1C | 0.6
CC(=O)c1c(C)nc2ccccc2c1N | 0.6
COc1cc(C(=O)N2CCN(S(=O)(=O)c3ccc(F)cc3)CC2)cc(OC)c1OC | i
CCOC(=O)c1ccc(NC(=O)COc2ccc(S(=O)(=O)NC(C)C)cc2)cc1 | i
CSc1cccc(NS(=O)(=O)c2ccccc2)c1 | 1.5
Cc1cccc(OCC(=O)N(Cc2cccs2)C2CCS(=O)(=O)C2)c1C (configuration not stated) | i
C=CCSc1nc2c(c(=N)n1CC=C)C1CCCC1S2 (configuration not stated) | 1.7
Cc1cc(C)n(-c2nnc(C)n2/N=C/c2ccccc2OCc2ccccc2Cl)n1 | i
O=C(OCC(=O)N1CCN(C(=O)c2ccco2)CC1)c1ccccc1OCc1ccccc1 | 1.4
O=C(Nc1ccncc1)C1CCCN(S(=O)(=O)c2cccc3cccnc23)C1 (configuration not stated) | 0.9
Cc1cc(NC(=O)CCC(=O)N(c2cccnc2)C(C(=O)NC2CCCC2)c2ccccc2F)no1 (configuration not stated) | 3.8
COC(=O)[C@H](CCSC)NC(=O)Nc1ccc(OC)c(Cl)c1 | i
COc1ccc(-c2cc3ccccc3oc2=O)cc1NC(=O)c1ccc([N+](=O)[O-])o1 | i
O=C(OCn1nnc2ccccc2c1=O)c1ccc(S(=O)(=O)N2CCOCC2)cc1 | 1.3
CCC(c1nnnn1CCC(C)C)N1CCC(C(N)=O)CC1 (configuration not stated) | 0.5
Cn1c(=O)c2c(nc(NC3CCCCC3)n2Cc2ccccc2)n(C)c1=O | 1.7
CCOC(=O)COc1c(OC)cc(Cl)cc1C1NC(=O)NC(C)=C1C(C)=O (configuration not stated) | i
COc1cc2nc(CC(C)C)n(NC(=O)c3ccccc3)c(=O)c2cc1OC | 1.6
COc1cccc(C(c2sc3nc(C)nn3c2O)N2CCN(C(=O)c3ccco3)CC2)c1 (configuration not stated) | 2.1
NC(=O)[C@H](Cc1cc2ccccc2s1)NC(=O)[C@@H]1CC2(CC(c3cccc(NC(=O)[C@@H]4CCC(=O)N4)c3)=NO2)CN1C(=O)c1ccccc1 (some centres not stated) | 0.8
O=C1CC(C2CCCO2)C(=O)N1Cc1ccccc1 (configuration not stated) | 1.3
CCCc1cc(NCCCCO)n2c(nc3ccccc32)c1C#N | 0.3
CCOC(=O)C1=C(C)OC(N)=C(C#N)C12C(=O)N(C)c1ccccc12 (configuration not stated) | i
COc1ccc(-c2noc(C3CCCN(C(=O)c4cccs4)C3)n2)cc1 (configuration not stated) | 2.5
COc1ccc(C(=O)NCCC2=CCCCC2)cc1OC | i
CCOC(=O)CSc1nc2c(c(=O)[nH]c(=O)n2C)n1CCCc1ccccc1 | 2.3
COc1ccc(CN2CCCCC2C(=O)Nc2ccc(OC)c(OC)c2)cc1OC (configuration not stated) | i
N#CCC(=O)N/N=C/c1ccc(Sc2nc3ccccc3s2)o1 | i
COC(=O)c1ccc(CSc2nc3ccc(Cl)cc3[nH]2)o1 | 1.2
Cc1ccc2ccccc2c1Cn1c(-n2ccnc2)nc2c1c(=O)n(C)c(=O)n2C | 3.8
CC(NS(=O)(=O)c1ccc(OCC(=O)N2CCOCC2)cc1)c1ccccc1 (configuration not stated) | 0.1
COc1cc(C(=O)OC(C)CN2CCCC2)cc(OC)c1OC (configuration not stated) | i
O=c1cc(N2CCCCC2)c(-c2ccccc2)nn1Cc1c(Cl)cccc1Cl | i
Cc1c(O)c(CN2CCCC2)cc2c3c(c(=O)oc12)CCC3 | 0.6
CCC(=O)N1Cc2ccccc2-c2ccccc2C1=O | 0.1
CCC(C(=O)NC(C)CCc1ccccc1)n1nc(C)n2c(cc3occc32)c1=O (configuration not stated) | 0.4
Cc1csc(N(C)C(=O)CSc2nnc(COc3cccc4ccccc34)o2)n1 | 0.7
N#Cc1ccc(Oc2nc(Nc3ccc(F)cc3)nc(N3CCCC3)n2)cc1 | i
CC(=O)Nc1cccc(OCC(=O)NS(=O)(=O)c2ccc(C)cc2)c1 | i
C=CCn1c2ccccc2c2nnc(SCC(=O)Nc3cc(C)on3)nc21 | i
Cc1cccc(N2CCN(C(=O)c3ccc4nc(-c5ccco5)c(-c5ccco5)nc4c3)CC2C)c1 (configuration not stated) | i
CC(=O)Nc1cccc(C(=O)N2CCN(Cc3ccccc3)CC2)c1 | 0.1
CC(C)OC(=O)CCC(=O)Nc1nc2ccccc2s1 | 0.3
CCCCc1cc(O)c(CCCC)c(O)c1 | 1.6
O=C(NCc1ccco1)c1c(O)c2cccc3c2n(c1=O)CCC3 | 0.4
O=C(Nc1ccc2c(c1)OCO2)N1CCN(c2ncccn2)CC1 | i
C#CCOC(=O)CCCC(=O)Nc1ccccc1OC | i
CCN(CC)c1ccc(NC(=O)/C=C/c2cc(Br)ccc2OC)cc1 | i

(continued)
SMILES | H5N1 antiviral
CN(C)c1ccc(C(=O)OCC(=O)NCC2CCCO2)cc1 (configuration not stated) | 0.5
Nc1[nH]n2c(=O)c3c(nc2c1N=Nc1ccc(Cl)cc1)CCCC3 | 0.9
OCc1nnc2c3ccccc3c(-c3ccccc3)nn12 | 3.2
CCOC(=O)CNC(=O)CSc1nnc(SCC(=O)NCC(=O)OCC)s1 | i
COCCCNC(=O)c1cc2c(-c3ccc(Cl)cc3)nn(C)c2s1 | i
CCOC(=O)C1CCCN(Cc2cc(Br)c(OC)cc2OC)C1 (configuration not stated) | i
